Rango complex inh = Rango-importin beta binding inhibition; Potency, µM (titrated, usually from 92.2 µM), for the others: top-dose inhibition of complex formation; actives 0.031% (n = 340,000); Rango CFP/YFP FRET sensor + importin beta, 45 min; active = rising FRET ratio curve, often small or poorly fitted; inconclusive = mostly compound fluorescence or quenching in the first reads; inactive = flat curves in all reads;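 also: potency is read from the fitted curve at half-maximal effect; 0% = DMSO wells and 100% = buffer wells lacking importin beta; nearly all actives have a fitted effect of over 15% in size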
Target sequence (Q14974 whole entry, looked up): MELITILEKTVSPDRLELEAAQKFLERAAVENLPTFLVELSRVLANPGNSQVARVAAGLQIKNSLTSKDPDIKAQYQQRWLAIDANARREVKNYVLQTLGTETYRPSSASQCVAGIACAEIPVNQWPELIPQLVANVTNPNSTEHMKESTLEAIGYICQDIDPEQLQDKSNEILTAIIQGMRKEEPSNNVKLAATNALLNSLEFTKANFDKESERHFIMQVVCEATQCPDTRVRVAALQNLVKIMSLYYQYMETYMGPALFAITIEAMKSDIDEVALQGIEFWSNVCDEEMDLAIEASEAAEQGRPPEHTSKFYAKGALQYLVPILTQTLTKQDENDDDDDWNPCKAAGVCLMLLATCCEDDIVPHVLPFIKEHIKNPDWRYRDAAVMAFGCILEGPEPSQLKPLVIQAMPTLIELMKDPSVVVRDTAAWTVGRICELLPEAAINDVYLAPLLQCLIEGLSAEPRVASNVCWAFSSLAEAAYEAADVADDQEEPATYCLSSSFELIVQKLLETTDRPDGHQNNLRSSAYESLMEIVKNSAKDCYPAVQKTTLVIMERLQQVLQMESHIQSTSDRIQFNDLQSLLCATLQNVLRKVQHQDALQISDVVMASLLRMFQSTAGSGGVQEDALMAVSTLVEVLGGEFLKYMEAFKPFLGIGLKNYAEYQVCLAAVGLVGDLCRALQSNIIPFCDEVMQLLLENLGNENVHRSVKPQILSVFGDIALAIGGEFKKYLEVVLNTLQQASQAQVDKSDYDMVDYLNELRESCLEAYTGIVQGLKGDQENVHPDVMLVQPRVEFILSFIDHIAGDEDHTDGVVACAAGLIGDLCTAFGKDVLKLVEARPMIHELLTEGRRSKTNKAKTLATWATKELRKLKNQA
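FRET biosensor (snurportin 1 IBB flanked by EYFP and cerulean), 50 nM, with compound 5 min, then 0.125 microM importin beta in PBS, 1 mM DTT, 0.02% Tween-20, 0.1% BSA. CFP/YFP ratio read after 45 min at room temperature; pre-read flags interference.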
GLA inh pH 4.5 = alpha-galactosidase A (human) inhibition, pH 4.5. 230,000 tested, under 10 active. purified enzyme, 4-MU-alpha-Gal fluorescence, pH 4.5. activity change, negative = inhibition, % at 105 µM. P06280. AID 1467; inconclusive = small, poorly fitted or top-dose-only inhibition, or a rising curve; inactive = flat fitted curve, though single readings scatter; no compound was filed as active;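 also: 0% = full activity with enzyme and -100% = basal without enzyme; dose as in the result columns while the protocol names 77 µM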
Rango release inh = inhibition of RanGTP-driven Rango-importin beta dissociation; O95149+P62826; Potency, µM (highest dose often 46.1 µM), inactives show top-dose activity change, negative = inhibition; Biochemical FRET Rango-importin beta, RanGTP-induced dissociation; actives 0.071% (n = 340,000); active means falling FRET ratio curve, often poorly fitted, with flat reads before Ran was added; inconclusive means other falling curves, or compound fluorescence or quenching; inactive means flat or rising ratio curve;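 also: potency is read from the fitted curve at half-maximal effect; % of control where 0% means no effect; nearly all actives have a fitted effect of over 45% in size; -100% = wells without RanGTP and RCC1; the record marks most hits as doubtful in a second field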
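Recombinant Rango FRET biosensor (EYFP–snurportin 1 IBB–cerulean CFP10) at 0.1 uM premixed with 0.25 uM importin beta in PBS, 1 mM DTT, 0.02% Tween-20, 0.1% BSA. Compound added 5 min; RanGTP-RCC1 (0.6 uM Ran, 2 mM GTP, 0.2 uM RCC1) then triggers release, read at 45 min.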
miR-21 reporter = miR-21 reporter, rising signal. HeLa miR-21 FLuc reporter, luciferase, 48 h. Potency, µM (highest dose often 38.3 µM), for the others: at the highest dose reporter change, positive = more light. 340,000 tested, under 10 active. AID 2288; active = well fitted rising curve with a large enough effect; inconclusive = small, poorly fitted or top-dose-only effect; inactive = no such curve, though single readings can be large or run the other way;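 also: % of control where 0% means no effect; miR-21 action dims this reporter so a rising signal means less miR-21 action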
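HeLa cells stably expressing CMV-driven firefly luciferase with a downstream miR-21 binding sequence, endogenously expressing miR-21, were treated with titrations (up to about 40uM final) for 48 hours at 37 degree Celsius. Luciferase luminescence was read after lysis.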
* hit, by the source's call. These rows are one share of the data, so the mix of outcomes need not match the whole.

Screening COc1ccccc1N1CCN(C(=O)c2oc3c(c2C)C(=O)CC(C)(C)C3)CC1 returned Rango complex inh -0.1%, Rango release inh -1% and miR-21 reporter 21%.
For Cc1ccc(-c2cc(C(=O)NCC3CCCO3)c3ccccc3n2)cc1C (stereo not drawn) the results were Rango complex inh 0.9%, GLA inh pH 4.5 5, Rango release inh 0% and miR-21 reporter -1%.
`Nc1nonc1-n1nnc(C(=O)N/N=C/c2cccc(Cl)c2Cl)c1CN1CCCC1` gave Rango complex inh -3.2%, Rango release inh -3% and miR-21 reporter -4%.
Screening C=CCNS(=O)(=O)c1sccc1/C=N/O returned Rango complex inh -0.4%, GLA inh pH 4.5 1, Rango release inh 8% and miR-21 reporter -6%.
For CC(C(=O)Nc1ccc2c(c1)OCCO2)c1ccc([N+](=O)[O-])cc1 (stereo not drawn) the results were Rango complex inh 0.0%, GLA inh pH 4.5 -5, Rango release inh 7% and miR-21 reporter -12%.
Screening O=C(CSc1ncn[nH]1)Nc1ccc(S(=O)(=O)N2CCCC2)cc1 returned Rango complex inh -1.9%, GLA inh pH 4.5 -4, Rango release inh -4% and miR-21 reporter 4%.
Screening COc1ccc(OCc2cc(C(=O)N(C)CC3CCCCO3)no2)c(Cl)c1 (stereo not drawn) returned Rango complex inh 5.8%, Rango release inh 3% and miR-21 reporter -45%.
For O=C(O/N=C\c1ccc(N2CCCCC2)c([N+](=O)[O-])c1)c1c(F)cccc1F the results were Rango complex inh 0.6%, GLA inh pH 4.5 3, Rango release inh -9% and miR-21 reporter 0%.
For CN1C(=O)c2ccc(NC(=O)C3CCCCC3)cc2C1=O the results were Rango complex inh -1.0%, GLA inh pH 4.5 6, Rango release inh 2% and miR-21 reporter -1%.
Screening CCOC(=O)c1c(NC(=O)CNCC(O)CO)sc(C)c1C (stereo not drawn) returned Rango complex inh 6.8%, GLA inh pH 4.5 -5, Rango release inh 7% and miR-21 reporter -9%.
For COc1ccc(OC)c(NC(=O)CN(c2ccc(C)cc2)S(=O)(=O)c2c(C)noc2C)c1 the results were Rango complex inh 2.3%, GLA inh pH 4.5 -9, Rango release inh 3% and miR-21 reporter 0%.
For CCC1(CC)NC(=O)N(CC(=O)OCC(=O)Nc2ccc(C(F)(F)F)cc2)C1=O the results were Rango complex inh 1.5%, GLA inh pH 4.5 -2, Rango release inh -11% and miR-21 reporter -9%.
Screening Cc1cccc(C(=O)Nc2nnc(SCC(=O)NCc3ccco3)s2)c1 returned Rango complex inh -2.0% and Rango release inh -3%.
Screening C=C(C)CNC(=S)NNC(=O)CCn1c2cc(Cl)ccc2c2ccc(Cl)cc21 returned Rango complex inh -0.2%, GLA inh pH 4.5 -5, Rango release inh 1% and miR-21 reporter -2%.
Screening CC(=O)c1sc(NCc2ccc(C)cc2)nc1C returned Rango complex inh -0.8%, Rango release inh 12% and miR-21 reporter -69%.
Screening Cc1cccc2sc(N(CCCN(C)C)C(=O)c3sc4ccccc4c3Cl)nc12 returned Rango complex inh 3.2%, GLA inh pH 4.5 6, Rango release inh 3% and miR-21 reporter -6%.
`CCCS(=O)(=O)c1cnc(C2COc3ccccc3O2)nc1N` (stereo not drawn) gave Rango complex inh -1.8%, Rango release inh -14% and miR-21 reporter inconclusive.
O=c1[nH]c2cc3c(cc2cc1CN(Cc1cccnc1)Cc1nnnn1Cc1ccco1)OCCO3 was read as Rango complex inh inconclusive, GLA inh pH 4.5 13, Rango release inh -26% and miR-21 reporter -9%.
CSc1nc2c(c(=O)[nH]1)C(c1ccc(Br)cc1)CC(=O)N2 (stereo not drawn) was read as Rango complex inh 0.1%, GLA inh pH 4.5 0, Rango release inh 2% and miR-21 reporter -2%.
For COc1ccc(CN2CCC(c3nc4ccc(Cl)cc4[nH]3)CC2)cc1 the results were Rango complex inh 1.8%, GLA inh pH 4.5 -1, Rango release inh 11% and miR-21 reporter 14%.
COc1ccc(N2CCN(C(=O)Cn3nnc(-c4ccc(OC)c(OC)c4)n3)CC2)cc1 was read as Rango complex inh 0.1%, GLA inh pH 4.5 -16, Rango release inh -1% and miR-21 reporter -1%.
Screening Cc1[nH]c2ccccc2c1/C=N/NC(=O)CNC(=O)COc1ccccc1 returned Rango complex inh -1.7%, GLA inh pH 4.5 6, Rango release inh 4% and miR-21 reporter 7%.
CCN1CCN(C(=O)Nc2ccc(Cc3ccc(NC(=O)N4CCN(CC)CC4)cc3)cc2)CC1 was read as Rango complex inh 7.5%, GLA inh pH 4.5 -5, Rango release inh -2% and miR-21 reporter -10%.
NC(=O)c1ccc(NC(=O)COC(=O)/C=C/c2cn(-c3ccccc3)nc2-c2cccnc2)cc1 was read as Rango complex inh inconclusive, GLA inh pH 4.5 -1, Rango release inh inconclusive and miR-21 reporter -7%.
`COC(=O)Cc1csc(Nc2ccccc2)n1` gave Rango complex inh inconclusive, GLA inh pH 4.5 -2, Rango release inh -3% and miR-21 reporter -48%.
For C[C@H](CCCC/C=C/C(=O)O)O[C@@H]1O[C@@H](C)[C@H](O)C[C@H]1O the results were Rango complex inh -3.9% and Rango release inh 0%.
For Cc1ccc(CC(=O)N2CCN(c3ccc([N+](=O)[O-])cc3)CC2)cc1 the results were Rango complex inh -0.5%, Rango release inh -6% and miR-21 reporter 21%.
`COc1ccccc1N1CCN(C2CCCN(C(=O)C3=NN(C)C(=O)CC3)C2)CC1` (stereo not drawn) gave Rango complex inh 5.5%, Rango release inh -2% and miR-21 reporter -6%.
`CC(C)N(NC(=O)c1cccc2ccccc12)C(C)C` gave Rango complex inh 1.1%, GLA inh pH 4.5 3, Rango release inh -4% and miR-21 reporter -3%.
Screening CN(C)c1ccc(C=NCC2(O)CCOC(C)(C)C2)cc1 (stereo not drawn) returned Rango complex inh 0.3%, GLA inh pH 4.5 2, Rango release inh -2% and miR-21 reporter 0%.
`NS(=O)(=O)c1ccc(CCNC(=O)c2ccccc2OCc2ccc(F)cc2)cc1` gave Rango complex inh -2.4%, Rango release inh -11% and miR-21 reporter 0%.
For CCCCOC(=O)c1ccc(NC(=O)c2c(OC)cccc2OC)cc1 the results were Rango complex inh 0.4%, GLA inh pH 4.5 -3, Rango release inh 24% and miR-21 reporter -5%.
Screening CC(=O)Nc1ccc(NC(=O)CSc2nnnn2-c2ccccc2F)cc1 returned Rango complex inh -0.1%, Rango release inh 4% and miR-21 reporter -13%.
For O=C(c1cnc(-c2ccccc2)s1)c1ccc(Cl)cc1Cl the results were Rango complex inh -2.7%, GLA inh pH 4.5 2, Rango release inh 10% and miR-21 reporter -6%.
`O=C(CCc1ccc(S(=O)(=O)NC2CCCCC2)cc1)Nc1ccccc1` gave Rango complex inh -0.5%, GLA inh pH 4.5 11, Rango release inh 1% and miR-21 reporter 2%.
CCN(CC)S(=O)(=O)c1cc(OC)c(Cl)cc1OC was read as Rango complex inh -1.3%, GLA inh pH 4.5 5, Rango release inh 2% and miR-21 reporter -8%.
Screening Cc1cccc(NC(=O)c2cc(-c3c(C)cc(C)cc3O)n[nH]2)c1 returned Rango complex inh 1.3%, Rango release inh -4% and miR-21 reporter -33%.
CC(C)N1C(=O)C2C(C(=O)NC3CCCCC3)C3C=CC2(O3)C1C(=O)NC1CCCCC1 (stereo not drawn) was read as Rango complex inh -1.4%, GLA inh pH 4.5 -4, Rango release inh 7% and miR-21 reporter -1%.
Screening CCCCCCCCCCCCCCCC(=O)OC[C@H](COP(=O)([O-])OCC[N+](C)(C)C)OC(=O)CCCCCCCCCCCCCCC returned GLA inh pH 4.5 1 and miR-21 reporter -1%.
Screening CC1(C)CC2(CCO1)OC(=O)CC2C(=O)NCc1ccccc1 (stereo not drawn) returned Rango complex inh -0.8%, GLA inh pH 4.5 1, Rango release inh 18% and miR-21 reporter -4%.
For C=CCOc1nc2c(c(=O)n(C)c(=O)n2C)n1Cc1ccccc1Cl the results were Rango complex inh -1.6%, GLA inh pH 4.5 3, Rango release inh -3% and miR-21 reporter 4%.
`Cc1ccc(C(=O)N/C(=C\c2cccs2)C(=O)NCCc2c[nH]c3ccccc23)cc1` gave Rango complex inh 4.4%, GLA inh pH 4.5 5, Rango release inh 15% and miR-21 reporter 22%.
For COc1ccc(-c2nnc(SCC(C)C)o2)cc1 the results were Rango complex inh -2.2%, GLA inh pH 4.5 3, Rango release inh -9% and miR-21 reporter -39%.
O=C1OC(c2ccc(O)cc2)(c2ccccc2O)c2ccccc21 (stereo not drawn) was read as Rango complex inh 0.3% and Rango release inh -1%.
CCCN(CCC)c1ccc(CC(=O)NC(C)Cc2ccccc2)cc1 (stereo not drawn) was read as Rango complex inh -4.3%, GLA inh pH 4.5 -10, Rango release inh -17% and miR-21 reporter 1%.

Not a retest: entries from further up.
`NS(=O)(=O)c1ccc(CCNC(=O)c2ccccc2OCc2ccc(F)cc2)cc1` gave Rango complex inh -2.4%, Rango release inh -11% and miR-21 reporter 0%.
For CCCCOC(=O)c1ccc(NC(=O)c2c(OC)cccc2OC)cc1 the results were Rango complex inh 0.4%, GLA inh pH 4.5 -3, Rango release inh 24% and miR-21 reporter -5%.
Screening CC(=O)Nc1ccc(NC(=O)CSc2nnnn2-c2ccccc2F)cc1 returned Rango complex inh -0.1%, Rango release inh 4% and miR-21 reporter -13%.
For O=C(c1cnc(-c2ccccc2)s1)c1ccc(Cl)cc1Cl the results were Rango complex inh -2.7%, GLA inh pH 4.5 2, Rango release inh 10% and miR-21 reporter -6%.
`O=C(CCc1ccc(S(=O)(=O)NC2CCCCC2)cc1)Nc1ccccc1` gave Rango complex inh -0.5%, GLA inh pH 4.5 11, Rango release inh 1% and miR-21 reporter 2%.
CCN(CC)S(=O)(=O)c1cc(OC)c(Cl)cc1OC was read as Rango complex inh -1.3%, GLA inh pH 4.5 5, Rango release inh 2% and miR-21 reporter -8%.
Screening Cc1cccc(NC(=O)c2cc(-c3c(C)cc(C)cc3O)n[nH]2)c1 returned Rango complex inh 1.3%, Rango release inh -4% and miR-21 reporter -33%.
CC(C)N1C(=O)C2C(C(=O)NC3CCCCC3)C3C=CC2(O3)C1C(=O)NC1CCCCC1 (stereo not drawn) was read as Rango complex inh -1.4%, GLA inh pH 4.5 -4, Rango release inh 7% and miR-21 reporter -1%.
Screening CCCCCCCCCCCCCCCC(=O)OC[C@H](COP(=O)([O-])OCC[N+](C)(C)C)OC(=O)CCCCCCCCCCCCCCC returned GLA inh pH 4.5 1 and miR-21 reporter -1%.

(further entries)
`CCOc1ccc(C(=O)Nc2ncn[nH]2)cc1` gave Rango complex inh 1.3%, Rango release inh 19% and miR-21 reporter -12%.
Screening c1ccc(-c2c[nH]c3[n+]2CCCCC3)cc1 returned Rango complex inh 3.5%, GLA inh pH 4.5 0, Rango release inh 24% and miR-21 reporter 2%.
CCC(CC)N1CCN(C(=O)c2cccc(Cl)c2)CC1 was read as Rango complex inh 0.7%, Rango release inh -4% and miR-21 reporter 0%.
Screening C/C=C/COC(=O)c1[nH]c2c(c1C)C(=O)CC(c1ccc(N(C)C)cc1)C2 (stereo not drawn) returned Rango complex inh 4.8%, GLA inh pH 4.5 -4, Rango release inh -5% and miR-21 reporter 7%.
COCCNC(=O)C(=O)Nc1cc2c3c(c1)CC(=O)N3CCC2 was read as Rango complex inh -3.7%, Rango release inh 15% and miR-21 reporter -5%.
CCCn1c(=O)c(C(=O)Nc2cnccn2)c(O)c2ccccc21 was read as GLA inh pH 4.5 3 and miR-21 reporter 0%.
`Cc1cc(OCC(=O)Nc2ccc3c(c2)OCCO3)cc(C)c1Cl` gave Rango complex inh 6.5%, GLA inh pH 4.5 -4, Rango release inh -3% and miR-21 reporter -14%.
For COc1ccc2c(c1)C[C@]1(C)c3ccccc3C(=O)N(Cc3ccccc3)[C@H]21 the results were Rango complex inh -0.5% and Rango release inh -3%.
For O=[N+]([O-])c1ccccc1SNc1ccc(Br)cn1 the results were Rango complex inh -2.1%, GLA inh pH 4.5 -3, Rango release inh 17% and miR-21 reporter -2%.
